Source: PubChem BioAssay
USP2a inh: inhibitors of human ubiquitin-specific protease USP2a; O75604; USP2 core, Ub-CHOP2 coupled fluorogenic reporter, 485/531; Potency, µM (series often up to 38.3 µM), for inactives: top-dose activity change, negative = inhibition, actives largely listed as inhibitors; 330,000 tested, 0.01% active;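 also: potency is read from the fitted curve at half-maximal effect; plate controls were DMSO wells for no effect and full inhibition by NEM control for full effect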
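USP2 core (10nM final) preincubated 30min RT with compound in 20mM Tris-HCl pH 8.0, 2mM CaCl2, 2mM beta-mercaptoethanol, 0.05% CHAPS; 25nM Ub-CHOP2 plus 25nM reporter substrate added, fluorescence (Ex485/Em531) read after 60min.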
Eya2 phos inh: Eya2 (human) phosphatase inhibition; O00167; AID 488837; 330,000 tested, 0.006% active; Potency, µM (doses to about 76.9 µM), without a hit: at the top dose activity, negative = inhibition, most hits filed as inhibitors; recombinant Eya2, OMFP fluorescence dephosphorylation (OMFP is methylfluorescein phosphate); also: potency is read from the fitted curve at half-maximal effect; % is scaled to controls: 0 for no effect and ±100 for the full control effect
Target sequence (O00167 whole entry, looked up): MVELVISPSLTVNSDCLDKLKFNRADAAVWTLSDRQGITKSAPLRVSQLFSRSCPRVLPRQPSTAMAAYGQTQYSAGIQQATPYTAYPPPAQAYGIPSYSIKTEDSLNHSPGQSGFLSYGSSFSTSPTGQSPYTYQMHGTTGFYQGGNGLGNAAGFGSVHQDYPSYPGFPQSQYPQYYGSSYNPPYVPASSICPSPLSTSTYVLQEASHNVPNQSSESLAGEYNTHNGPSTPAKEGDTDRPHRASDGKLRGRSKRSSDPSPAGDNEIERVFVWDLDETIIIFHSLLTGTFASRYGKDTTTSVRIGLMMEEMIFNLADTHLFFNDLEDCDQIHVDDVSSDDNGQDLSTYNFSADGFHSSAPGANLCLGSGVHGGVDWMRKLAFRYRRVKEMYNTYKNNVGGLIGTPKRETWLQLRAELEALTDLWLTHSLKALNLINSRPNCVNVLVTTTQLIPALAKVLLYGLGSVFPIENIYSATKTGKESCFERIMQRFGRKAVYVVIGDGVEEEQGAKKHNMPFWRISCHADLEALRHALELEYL
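Eya2 (0.2 uM) preincubated 10 min at ambient with compound, then OMFP substrate added at 50 uM; 10 min reaction in 50 mM HEPES pH 7.5, 50 mM NaCl, 5 uM MgCl2, 0.05% BSA, 1 mM DTT. Fluorescence read at Ex 485/Em 525 nm.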
BCR signal inh: chronic active BCR signaling inhibition; ABC-DLBCL IkBa-CBG/CBR reporter, luminescence ratio, 4 h; Potency, µM (top dose mostly 46.1 µM), for the others: top-dose ratio change, negative = lower green/red ratio, actives largely listed as inhibitors; 340,000 tested, 0.05% active; AID 493014; active = well fitted inhibition curve with a large enough effect in the signal ratio, with a control signal flat, not every such curve was filed as active; inconclusive = small, poorly fitted or top-dose-only effect, or effect the other way, or a change in a side signal; the % refers to the signal ratio;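 also: potency is read from the fitted curve at half-maximal effect; plate controls were basal doxycycline-induced cells for no effect and cells given 10 µM MG132 for full effect; MG132 reads +100%, hits lower the ratio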
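Cell line TMD8 (human ABC DLBCL), stably expressing tet-inducible CBG68-IkBa fusion and CBR; IMDM/0.5% FBS; cpd up to 46 uM; dox induction, 4 h, 37C/5% CO2; dual luminescence; green/red ratio; MG132 control.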
KCNH2 WT inh: KCNH2 (human, wildtype) channel inhibition; U2OS, BacMam KCNH2, thallium flux FluxOr; stronger effect = lower value; activity change, % at 1.84 µM; 340,000 tested, 0.37% active; AID 720551; Q12809;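 active = maximum activity change below -70%; inconclusive = maximum activity change between -70% and -50%; inactive = maximum activity change above -50%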; also: % is scaled to controls: 0 for no effect and ±100 for the full control effect
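U2OS cells transduced with wild-type KCNH2 virus are loaded with FluxOr dye for 45 min, and thallium flux is measured in kinetic reads before and after stimulation buffer. Rate constants are normalized to DMSO controls.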
ASM inhibitor: human S-ASM enzyme inhibition. P17405. placental ASM, HMU-PC fluorogenic substrate, 60 min. Potency, µM (titrated, usually from 57.5 µM), inactives show at the highest dose activity change, negative = inhibition, hits mostly inhibitors. 340,000 tested, 0.006% active. AID 504937; also: potency is read from the fitted curve at half-maximal effect
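qHTS format. ASM enzyme prepared from human placenta hydrolyses the fluorogenic substrate HMU-PC0 (9 uM final) over 60 min at 37 °C after a 10 min compound preincubation.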
PKM2 activator: PKM2 (human) enzyme activation. AID 1631. purified PKM2, Kinase-Glo ATP luminescence, activation; response scale: 0% is enzyme alone, no compound. P14618. Potency, µM (highest dose often 57.5 µM), for inactives: at the top dose activation, hits mostly activators. 260,000 tested, 0.34% active; also: potency is read from the fitted curve at half-maximal effect; % is scaled to controls: 0 for no effect and ±100 for the full control effect; nearly all actives have a fitted effect of over 55% in size
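hPK-M2, >95% pure; 0.1 mM ADP / 0.5 mM PEP final; imidazole pH7.2 buffer w/ 7 mM MgCl2, 50 mM KCl; 1 h RT; Kinase-Glo lum. Intermediate enzyme activity for dual inhibitor/activator qHTS.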
GALK inh: inhibitors of human galactokinase; P51570; Potency, µM (top dose mostly 57.5 µM), inactives show at the highest dose activity change, negative = inhibition, actives largely listed as inhibitors; Purified GALK, Kinase-Glo residual ATP luminescence; 270,000 tested, 0.007% active; AID 1868; also: potency is read from the fitted curve at half-maximal effect; % is scaled to controls: 0 for no effect and ±100 for the full control effect
Target sequence (P51570 whole entry, looked up): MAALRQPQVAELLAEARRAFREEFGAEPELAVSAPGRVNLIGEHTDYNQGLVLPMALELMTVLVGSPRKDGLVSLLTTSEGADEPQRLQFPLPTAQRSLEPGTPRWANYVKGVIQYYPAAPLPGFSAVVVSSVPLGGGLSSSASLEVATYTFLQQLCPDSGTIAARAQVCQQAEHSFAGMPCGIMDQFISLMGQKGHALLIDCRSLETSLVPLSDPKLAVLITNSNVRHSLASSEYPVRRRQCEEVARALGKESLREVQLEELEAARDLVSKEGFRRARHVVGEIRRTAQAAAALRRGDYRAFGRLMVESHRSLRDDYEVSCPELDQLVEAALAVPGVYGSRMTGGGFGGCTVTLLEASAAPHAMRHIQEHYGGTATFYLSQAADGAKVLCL
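Quantitative HTS: GALK 5 nM, ATP 35 uM, galactose 100 uM, 1 h room temperature, then luciferase-based ATP detection.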
Mito fusion yeast: inhibitors of mitochondrial division or activators of mitochondrial fusion. S. cerevisiae fusion-defective mutant growth rescue, CellTiterGlo 48 h. Potency, µM (highest dose often 46.1 µM), without a hit: at the top dose growth rescue (activation), most hits filed as activators. 320,000 tested, 0.23% active. AID 485298;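 also: potency is read from the fitted curve at half-maximal effect; % of control where 0% means no effect; nearly all actives have a fitted effect of over 45% in size; temperature-sensitive fusion mutants such as fzo1-1 at 37 °C on non-fermentable ethanol glycerol medium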
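Temperature-sensitive fusion-defective S. cerevisiae (e.g. fzo1-1, mgm1-5) were grown with compound in YPEG medium (3% ethanol, 3% glycerol) for 48 hours at 37C. Growth rescue was measured as viability by CellTiterGlo luminescence after 10 minutes at ambient.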
TSHR antag: human thyrotropin receptor antagonism; TSHR-expressing cells, TSH-stimulated cAMP HTRF, 2 h; stronger effect = lower value; activity change, negative = inhibition, % at 11.5 µM; 330,000 tested, 0.2% active;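 active = activity change below a set negative limit, meaning inhibition stronger than a set level, cut at about -70% in these data; inconclusive = activity change between two set negative limits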; also: % is scaled to controls: 0 for no effect and ±100 for the full control effect
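Inhibition of cAMP made by TSHR-expressing cells under TSH stimulation (4nM final, EC80; 2 h, 37 deg C) is quantified with a one-step lysis HTRF kit, anti-cAMP cryptate versus cAMP-d2.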
MBNL1-CUG inh: inhibitors of human MBNL1 binding to CUG repeat RNA | TR-FRET MBNL1-His/biotin-(CUG)12 binding, 665/545 ratio | 280,000 tested, 0.036% active | Q9NR56 | AID 2675 | Potency, µM (series often up to 57.5 µM), for the others: at the top dose activity change, negative = inhibition, actives largely listed as inhibitors; active = well fitted inhibition curve with a large enough effect in the signal ratio, with a control signal flat, not every such curve was filed as active; inconclusive = small, poorly fitted or top-dose-only effect, or effect the other way, or a change in a side signal; inactive = no such curve, though single readings can be large or run the other way; the % refers to the signal ratio; also: potency is read from the fitted curve at half-maximal effect; % is scaled to controls: 0 for no effect and ±100 for the full control effect
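TR-FRET between His-tagged MBNL1 and biotin-(CUG)12 RNA, detected with Tb anti-His antibody (0.055 ng/ul) and streptavidin-XL665 (5 nM), 60 min at room temperature. Compounds titrated 92 nM to 58 uM; 665/545 nm ratio normalized to buffer and complex controls.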
* hit, by the source's call; ? = inconclusive; / = no result given; [ ] = another dose, or the depositor's remark. Unless noted, calls follow the shape of the dose curve; as a rule, active = well fitted curve in the direction sought with a large enough effect; inconclusive = small, poorly fitted or top-dose-only effect, or another doubt; inactive = no such curve, though single readings can be large; an effect the other way counts as inactive or inconclusive. Some of the compounds tested. The share of hits here may be higher or lower than overall.

SMILES | USP2a inh | Eya2 phos inh | BCR signal inh | KCNH2 WT inh | ASM inhibitor | PKM2 activator | GALK inh | Mito fusion yeast | TSHR antag | MBNL1-CUG inh
Cc1ccc(CSCCNC(=O)c2ccc(C)cc2)cc1 | -1% | -10% | -3% | -12 | -2% | -2% | 2% | -1% | -5 | -8%
CC(Sc1nc(-c2ccccc2)cc(C(F)(F)F)n1)C(=O)Nc1sc2c(c1C#N)CCC2 (stereo unspecified) | 0% | 6% | 21% | -24 | -15% | 0% | / | -4% | -7 | 3%
CC1CN=C(N(Cc2ccccc2)C(=O)Nc2ccccc2)S1 (stereo unspecified) | 0% | 6% | ? | 4 | 5% | -12% | 0% | 0% | -8 | 3%
Cc1ccc(SCc2cc(-c3ccc(Cl)cc3)no2)cc1 | 2% | -1% | 5% | -33 | -1% | 0% | -1% | -4% | 8 | -6%
COc1ccc(CNc2ccc(Cl)cc2)cc1Cn1ccnc1 | -3% | -5% | 2% | 8 | 2% | / | / | 9% | 7 | -4%
COc1ccc(CC(=O)NC2CCCCCC2)c(OC)c1 | -1% | 10% | 2% | -5 | 1% | / | 0% | 5% | -3 | -13%
COc1ccccc1CN1CCN(Cc2ccc3ccccc3c2)CC1 | -1% | -6% | ? | 4 | -1% | / | 8% | -23% | -1 | -12%
O=C(NCCCN1CCOCC1)c1ccc(Br)s1 | 0% | 2% | -2% | -14 | 3% | -15% | 0% | 7% | 25 | -9%
CS(=O)(=O)N1CCc2cc(C(=O)Nc3ccc(COCC(F)(F)F)cc3)ccc21 | 1% | -12% | -10% | -7 | -16% | -3% | -11% | -3% | -46 | -11%
Cc1cc(C)c(NC(=S)NC(NC(=O)c2ccccc2)C(Cl)(Cl)Cl)c(C)c1 (stereo unspecified) | 1% | 1% | ? | 1 | -4% | -3% | -2% | -3% | -7 | -7%
CCN(C(=O)CSc1nnc2ccccn12)C1CCS(=O)(=O)C1 (stereo unspecified) | 0% | 5% | -5% | -6 | -3% | -1% | 3% | 0% | 11 | 3%
COc1cccc(CN(C)CC(=O)Nc2sc3c(c2C#N)CCC3)c1 | 3% | 2% | 3% | -10 | -2% | 2% | 0% | -3% | -7 | -3%
COc1ccc(C2SCC(C(=O)O)N2C(C)=O)cc1 (stereo unspecified) | 3% | 5% | -3% | -10 | 3% | 1% | 0% | -7% | -5 | 2%
O=c1c2ccccc2nc(-c2ccccc2)n1CCN1CCOCC1 | 3% | 9% | 0% | 1 | 5% | 5% | 1% | 2% | 9 | -3%
CC(=O)/C(=N\Nc1cccc(Cl)c1)Sc1cccc2cccnc12 | 7% | -12% | -1% | -2 | -7% | 5% | 2% | 1% | 5 | /
COc1ccc(OC)c(CC(=O)N2CCc3cc(OC)c(OC)cc3C2)c1 | -3% | -4% | -5% | 5 | 10% | / | -3% | 25% | 2 | -9%
COc1cc(/C=N/Nc2nn3cnnc3c3ccccc23)cc(OC)c1OC | -2% | -9% | 3% | 7 | 11% | 0% | -1% | 5% | -14 | ?
O=[N+]([O-])c1cc(C(F)(F)F)ccc1N1CCN(S(=O)(=O)c2ccc3c(c2)CCCC3)CC1 | 4% | 4% | -7% | -11 | -4% | 1% | 1% | -4% | 6 | /
COc1cccc(/C=C/C(=O)OCC(=O)NCc2ccc(Cl)cc2)c1 | 1% | -2% | -6% | -2 | -8% | -36% | 0% | -5% | -13 | -1%
COc1cccc(C(=O)NCCSc2ccc(Br)cc2)c1 | -4% | 24% | ? | 8 | 0% | -13% | -2% | -1% | -7 | 3%
CCN(C(=O)CSc1nnc(Nc2ccccc2)s1)C1CCS(=O)(=O)C1 (stereo unspecified) | 1% | -4% | ? | -9 | -1% | -3% | 0% | -1% | 2 | 0%
COc1cc2nc(NC(=O)c3ccccc3)[nH]c(=O)c2cc1OC | 2% | -35% | ? | -4 | -1% | 4% | 2% | 3% | -5 | -5%
NNC(=O)c1nc(-c2ccccc2)cc(-c2ccccc2)n1 | -2% | -23% | -1% | 1 | -5% | -1% | -1% | 14% | -6 | 3%
COc1cccc(CN2CCN(Cc3cc(OC)c(OC)cc3OC)CC2)c1 | 1% | -22% | -3% | 7 | 2% | / | / | -89%[inhibitor] | 9 | -7%
CCOC(=O)c1oc2cccc(OCC(O)CNC(C)C)c2c1C (stereo unspecified) | 2% | 2% | ? | -10 | 2% | 9% | -4% | 1% | 20 | -2%
CC(Sc1nc(-c2ccccc2)nc2c1COC(C)(C)C2)C(=O)N1CCOCC1 (stereo unspecified) | 2% | 0% | ? | 0 | 0% | -3% | 0% | 7% | 0 | -9%
CC(/C=N\NC(=O)CN1CCN(Cc2ccccc2)CC1)=C\c1ccco1 | 2% | -17% | 0% | 11 | -1% | 3% | 2% | -1% | 2 | ?
O=c1oc(-c2ccccc2NS(=O)(=O)c2ccc3ccccc3c2)nc2ccccc12 | 1% | 6% | 19% | -11 | -2% | -2% | 1% | 7% | -5 | -11%
COC(=O)CCc1sc(Nc2ccccc2)nc1-c1ccc(OC)cc1 | 0% | -14% | ? | 4 | / | -2% | -1% | 27% | 2 | 1%
CC(C)CC(=O)NC(=S)Nc1nc(-c2cccc3ccccc23)cs1 | 2% | 11% | 12% | -16 | -14% | -2% | 2% | -4% | 17 | -1%
CC(Nc1nc(=S)nc(Nc2ccc(F)cc2)[nH]1)c1ccccc1 (stereo unspecified) | 1% | -6% | -2% | 1 | 4% | 0% | 2% | -1% | 3 | 2%
Cc1cc(C)c(NC(=O)c2ccc3c(c2)CCN3S(C)(=O)=O)c(C)c1 | 1% | -6% | 4% | -1 | 1% | / | 1% | 8% | -3 | 3%
CCN1CCN(C(=O)c2c(-c3c(Cl)cccc3Cl)noc2C)CC1 | 1% | 4% | 0% | 6 | 1% | 0% | -2% | -20% | -8 | -28%
O=C(CCCn1c(=S)[nH]c2cc3c(cc2c1=O)OCO3)NCc1ccccc1Cl | 3% | 1% | ? | 5 | 0% | / | 1% | -5% | 0 | 92%[activator]
COc1cc(CN2CCN(Cc3ccccc3C(F)(F)F)CC2)cc(OC)c1OC | 1% | 0% | -2% | 1 | -3% | / | 2% | -12% | -5 | 0%
Cc1ccc(S(=O)(=O)NCc2ccc(C(=O)NCCc3ccc(S(N)(=O)=O)cc3)cc2)cc1 | -2% | -1% | 1% | -2 | -3% | / | / | 11% | 1 | -3%
CN1OC(COC(=O)c2ccc(Cl)cc2Cl)CC1c1ccccc1 (stereo unspecified) | 0% | -5% | 0% | -10 | -2% | 0% | 1% | -3% | -28 | -1%
Cc1ccc(NC(=O)C(C)Sc2nnc(C)n2CC2CCCO2)cc1 (stereo unspecified) | 3% | -6% | 0% | -2 | -1% | -5% | 0% | -2% | 25 | -9%

A section from the list above, for reference:
SMILES | USP2a inh | Eya2 phos inh | BCR signal inh | KCNH2 WT inh | ASM inhibitor | PKM2 activator | GALK inh | Mito fusion yeast | TSHR antag | MBNL1-CUG inh
CC(Nc1nc(=S)nc(Nc2ccc(F)cc2)[nH]1)c1ccccc1 (stereo unspecified) | 1% | -6% | -2% | 1 | 4% | 0% | 2% | -1% | 3 | 2%
Cc1cc(C)c(NC(=O)c2ccc3c(c2)CCN3S(C)(=O)=O)c(C)c1 | 1% | -6% | 4% | -1 | 1% | / | 1% | 8% | -3 | 3%

4 entries from above, set out differently.
Values run as follows: USP2a inh	Eya2 phos inh	BCR signal inh	KCNH2 WT inh	ASM inhibitor	PKM2 activator	GALK inh	Mito fusion yeast	TSHR antag	MBNL1-CUG inh
- CCN1CCN(C(=O)c2c(-c3c(Cl)cccc3Cl)noc2C)CC1
    1%	4%	0%	6	1%	0%	-2%	-20%	-8	-28%
- Cc1cc(C)c(NC(=O)c2ccc3c(c2)CCN3S(C)(=O)=O)c(C)c1
    1%	-6%	4%	-1	1%	/	1%	8%	-3	3%
- COc1cc(CN2CCN(Cc3ccccc3C(F)(F)F)CC2)cc(OC)c1OC
    1%	0%	-2%	1	-3%	/	2%	-12%	-5	0%
- CC(Nc1nc(=S)nc(Nc2ccc(F)cc2)[nH]1)c1ccccc1 (stereo unspecified)
    1%	-6%	-2%	1	4%	0%	2%	-1%	3	2%
